AmpC inh no det: inhibitors of E. coli AmpC beta-lactamase without detergent; P00811; AmpC nitrocefin hydrolysis, absorbance 480 nm, no detergent; potencies from a single point are estimates; Potency, µM (top dose mostly 28.7 µM), inactives show top-dose activity change, negative = inhibition; 1.8% of 71,000 active; AID 585; active = falling curve, for most hits resting on a single point; inconclusive = weak or doubtful change; inactive = flat or rising curve; note: % of control where 0% means no effect; about half of the hits show no inhibition at the top dose; a quarter of the inactives give rising signals
Target sequence (P00811 whole entry, looked up): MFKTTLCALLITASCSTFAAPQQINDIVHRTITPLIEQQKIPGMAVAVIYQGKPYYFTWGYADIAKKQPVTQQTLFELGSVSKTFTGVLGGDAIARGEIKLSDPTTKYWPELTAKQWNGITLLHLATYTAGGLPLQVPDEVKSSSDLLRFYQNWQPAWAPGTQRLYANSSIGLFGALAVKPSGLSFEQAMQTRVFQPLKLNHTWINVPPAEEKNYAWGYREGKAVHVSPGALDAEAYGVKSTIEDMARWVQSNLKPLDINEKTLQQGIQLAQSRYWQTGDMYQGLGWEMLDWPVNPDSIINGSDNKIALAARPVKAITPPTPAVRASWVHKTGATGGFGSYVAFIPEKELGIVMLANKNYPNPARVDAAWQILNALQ
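Enzyme, pH 7.0 phosphate. Compound titrations were pre-incubated with AmpC for 15 min at room temperature before nitrocefin (stock 800 uM) addition; product formation was recorded at 480 nm every 20 s for 4 min.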
Starred values were filed as active, the others as inactive; u = inconclusive; + = active, no number; & = joins results of further samples; [ ] = remark or other dose. Potency is the fitted concentration of half-maximal effect. A portion of the library (hit frequency here may not be typical).

SMILES	AmpC inh no det
COc1ccc(CSc2nc(C)cc(=O)[nH]2)cc1Br	43.0%
c1n[nH]c(NC2=NCCC2)n1	3.1%
Cc1nn(Cc2ccccc2)c(C)c1C(=O)OCC(=O)Nc1ccccc1SCC#N	41.6%
CN1CCN(c2ncc3nc(-c4ccc(F)cc4)c(=O)n(Cc4cccs4)c3n2)CC1	94.0%
NC(=O)C1CCN(C(c2ccccc2Cl)c2nnnn2CC2CCCO2)CC1 (stereo unspecified)	0.8%
CCn1nc(NC(=O)c2ccncc2)c2cc3ccccc3nc21	48.2%
O=C(NCC1CCCO1)C1CCN(c2ccc(S(=O)(=O)N3CCCC3)cc2)CC1 (stereo unspecified)	19.4%
CCC(=O)[C@@H](c1ccccc1)c1ccccn1	6.3%[5.75 µM]
CO[C@@]12C[C@@H](COC(=O)c3cncc(Br)c3)CN(C)[C@H]1Cc1cn(C)c3cccc2c13	122.0%
CC1(C)CC(=O)c2c(-c3cccs3)n[nH]c2C1	-13.3%
CN(C)c1cccc(N=C2C=C(N3CCOCC3)CC(C)(C)C2)c1	2.6%
COc1cccc(-c2ccc3ncnc(NCc4cccnc4)c3c2)c1	64.3%
CN1CC[C@]2(C)c3cc(O)ccc3N(C)[C@@H]12	8.9%
CCc1ccc2nc3c(c(C(=O)O)c2c1)CCC3	8.6%
NCCCc1ccc2oc3ccccc3c2c1	-3.9%[5.75 µM]
CN/C(=C\[N+](=O)[O-])NCCSCc1csc(CN(C)C)n1	-0.3%[12.8 µM]
Cc1nc2ccccc2n1S(=O)(=O)c1ccc(S(=O)(=O)N2CCCCCC2)cc1	-11.6%
CCOC(=O)N1CCN(C(=O)Nc2ccc3nc(C)c(C)nc3c2)CC1	11.7%
COc1ccc(C(=O)CSc2cc(C)nc3nc(C)nn23)cc1OC	108.1%
CCCCN(CC)CCNC(=O)C1c2cc(OC)c(OC)cc2C(=O)N2CCc3ccccc3C12 (stereo unspecified)	22.7%
COCCCN(C(=O)c1cccnc1SC)c1c(N)n(Cc2ccccc2)c(=O)[nH]c1=O	-1.8%
C[C@@](N)(Cc1c[nH]c2ccccc12)C(=O)O	7.5%[5.75 µM]
COc1ccc2c(c1)c(CC(=O)OCC(=O)O)c(C)n2C(=O)c1ccc(Cl)cc1	13.8%[12.8 µM]
Cc1cccc(N(CC(N)=O)C2SC(=O)N(c3ccccc3)C2=O)c1 (stereo unspecified)	-9.1%
Oc1ccccc1Nc1ncnc2c1oc1ccccc12	-18.8%
SMILES	AmpC inh no det
N[C@@H](Cc1ccnnc1)C(=O)O	-6.3%[5.75 µM]
CN1CCN(c2ncc3nc(-c4cc(F)cc(F)c4)c(=O)n(Cc4cccs4)c3n2)CC1	62.7%
CC(=O)N1CCC2(CC1)CCN(C(c1ccccc1)c1ccccc1)CC2	110.2%
Cc1cc(C(=O)N(C)CC(=O)Nc2ccccc2C(F)(F)F)c(C)o1	7.9%
Cc1cc(C(=O)COc2ncnc3sccc23)c(C)n1C	3.1%
CCOC(=O)c1cc2c(ccn2-c2ccc(F)cc2)n1CC(=O)N1CCN(C(=O)c2ccco2)CC1	128.9%
CC1=CC(C)(C)N(C(=O)CN2C(=O)c3ccccc3C2=O)c2ccccc21	47.4%
CCCCCn1c(Sc2nc3ccccc3s2)nc2c1c(=O)[nH]c(=O)n2C	69.2%
CN(CCO)C(=O)c1cccc2c1-c1ccccc1C2=O	1.3%
CN(CC(=O)NCCN1CCN(Cc2ccccc2)CC1)S(=O)(=O)c1cccc2nsnc12	39.6%
CCCCOc1ccc(S(=O)(=O)Nc2cc(OC)ccc2OC)cc1	7.7%
CC(C)(C)c1ccc(S(=O)(=O)NCCOCC(F)(F)C(F)F)cc1	8.1%
Cc1nc2ccccc2c(=O)n1C1CCCCCC1	24.2%
CC(C)CCCNc1nc(N2CCOCC2)nc(N2CCOCC2)n1	87.2%
CN1CCC(N(C)CC(=O)Nc2cccc(Oc3ccccc3)c2)CC1	7.7%
O=C(CSc1nnc(Nc2ccccc2)s1)NCc1ccco1	-1.9%
CC1CC(C)CN(S(=O)(=O)c2ccc(C(=O)NCCCn3ccnc3)cc2)C1 (stereo unspecified)	48.8%
C=CCN1C(=O)C(O)(CC(=O)c2ccc(Cl)cc2)c2ccccc21 (stereo unspecified)	23.5%
CC(C(=O)NCc1ccco1)n1nc(-c2ccccc2)c2cc(Cl)ccc21 (stereo unspecified)	10.7%
COC(=O)c1ccccc1NC(=O)C1CCN(C(=O)c2cc(OC)cc(OC)c2)CC1	93.0%
COc1cccc(N2C(=O)C3ON(c4ccccc4)C(c4cccs4)C3C2=O)c1 (stereo unspecified)	-15.5%
COc1cc2c(C(=O)N3CCN(C)CC3)c(C)n(C)c2cc1Br	27.2%
COc1ccc2c(c1)CC(C1(O)C(=O)N(C)c3ccccc31)C2=O (stereo unspecified)	0.6%
CC(C)c1cc(C(=O)Nc2cccnc2)no1	-2.7%
COc1ccc(S(=O)(=O)N(C)C2CCN(C)CC2)cc1	-5.7%
SMILES	AmpC inh no det
COc1ccc(-n2nnnc2SCC(=O)c2ccc(OC)c(OC)c2)cc1	78.5%
CC(C)Oc1cccc(C(=O)Nc2ccccc2N2CCOCC2)c1	53.9%
CCCCC(=O)N1CC2(C)CN(C(=O)CCCC)CC(C)(C1)C2=O	-7.8%
Cc1cc2cc3c(=O)[nH]c(=O)[nH]c3nc2cc1C	-7.6%[5.75 µM]
COc1ccc(OC)c(C(=O)CSc2nc3ncccc3[nH]2)c1	0.5%
O=C(Nc1nccs1)c1ccc(S(=O)(=O)c2ccccc2)cc1	2.1%
O=C(NC1CS(=O)(=O)CC1NCc1ccco1)c1ccccc1 (stereo unspecified)	-9.6%
CC1CCN(c2nc(-c3ccccc3)c(C#N)c(=O)[nH]2)CC1	-14.3%
O=C(Cn1cnc2c(cnn2-c2ccccc2)c1=O)N1CCOCC1	18.7%
O=C(COC(=O)CN1C(=O)C2CC=CCC2C1=O)Nc1cc(C(F)(F)F)ccc1N1CCOCC1 (stereo unspecified)	93.8%
Cc1ccc2cc(CN(CC3CCCO3)S(=O)(=O)c3cccc4nsnc34)c(=O)[nH]c2c1 (stereo unspecified)	89.2%
COc1ccc(-n2ccnc2SCC(=O)Nc2ccccc2)cc1	4.3%
CCSc1nnc(NC(=O)c2ccc(C)o2)s1	-4.9%
CS(=O)(=O)c1ccc2nc(NC(=O)Cc3ccccc3)sc2c1	-14.6%
COC(=O)CSc1nc2c(c(-c3ccc(C)o3)c1C#N)CCCC2	1.4%
Oc1ccc(N2CCN(C(c3ccncc3)c3nnnn3C3CCCC3)CC2)cc1 (stereo unspecified)	17.9%
COc1cc2c(cc1OC)C(C(=O)N1CCOCC1)C(c1cccs1)N(C)C2=O (stereo unspecified)	11.9%
CCCc1nnc(SCC(=O)N2CCOCC2)n1CCCOC	-9.4%
Cc1ccc(C(c2nnnn2Cc2cccs2)N2CCN(Cc3ccc4c(c3)OCO4)CC2)cc1 (stereo unspecified)	37.6%
COc1cccc2[nH]c3c(N4CCC(C(N)=O)CC4)ncnc3c12	-9.8%
N#CCSc1nnc(C2CCCCC2)n1-c1ccccc1	19.3%
CSc1nc2nc(C)cc(-c3ccccc3)n2n1	11.6%
O=C1c2ccccc2-c2ccc(N(Cc3ccc(Br)cc3)Cc3ccc(Br)cc3)cc21	-9.4%[5.75 µM]
Cc1ccc(NC(=O)NC(=O)CN2C(=O)NC3(CCCCCCC3)C2=O)c(C)c1	27.1%
CCn1c(CNc2ccc(Cl)cc2)nnc1SCC(=O)NCc1ccccc1	46.0%
SMILES	AmpC inh no det
Cc1nn2c(-c3cccc(NC(=O)CN4CCOCC4)c3)nnc2c2ccccc12	100.4%
Cn1c(C(=O)N2CCc3ccccc3C2)cc2c(=O)n3ccccc3nc21	89.8%
CC1(C(=O)N(CC(=O)NC2CCCC2)C2CCCC2)CC(=O)N=C2C=CC=CN21 (stereo unspecified)	-13.7%
O=C(O)CN1C(=O)c2cccc(Oc3ccc(Cl)cc3)c2C1=O	-0.2%
CCN1/C(=C\C(C)=O)Sc2ccc(OC)cc21	16.0%
OC1C=CSc2nc3ccccc3n21 (stereo unspecified)	5.1%
C[C@@H](C(=O)Nc1ccc2ccccc2c1)[C@@H]1C[C@@]1(C)[C@@H](NC(=O)Oc1ccc(F)cc1)c1ccccc1	u
Cn1c(Cn2nnc3ccccc32)nnc1SCC(=O)c1ccc(F)cc1	22.5%
CCCn1c(C)nc2c(NCCCCN3CCCC3)nc(C)nc21	-5.7%
Cc1ccccc1-c1noc(N)c1C#N	-15.3%
Oc1c(C(c2cccc(F)c2)N2CCN(Cc3ccccc3)CC2)sc2ncnn12 (stereo unspecified)	129.1%
NC(=O)c1c(NC(=O)CN2C(=O)CCC2=O)sc2c1CCCCC2	20.6%
CCOC(=O)N1CCN(C(=O)c2csc3c2CCCCC3)CC1	43.4%
CC(=O)NCCc1csc(-c2ccccc2)n1	3.0%
CCOc1nc(C#N)nc(N2CCCCC2)n1	1.8%
Cc1cccc(Cn2c(=O)c3c(nc4n3CCCN4Cc3ccccc3)n(C)c2=O)c1	49.3%
O=C(NCCCNC1CCCCC1)c1ccc(/C=N/O)nc1	-20.4%
Cc1ccccc1C(=O)Nc1c(C(=O)N2CCCC2)cnn1-c1ccccc1	22.0%
COCCNC(=O)Cn1ncc2ccsc2c1=O	9.7%
CCOc1ccc(C2C(C#N)=C(N)Oc3cc(C)n(CCN(C)C)c(=O)c32)cc1OCC (stereo unspecified)	-8.2%
O=C(CSc1nnc(-c2ccc(Cl)cc2)n1Cc1ccco1)Nc1ccc2c(c1)OCCO2	+[single pt active]
COc1ccc(-c2nnn(CC(=O)N(Cc3cccs3)C(C)C(=O)NC3CCCC3)n2)cc1OC (stereo unspecified)	129.6%
CC1CCN(S(=O)(=O)c2cc(Br)cc(C(=O)NC3=NCCS3)c2)CC1	-1.2%
c1nc(NCCN2CCOCC2)c2cc(-c3ccc4c(c3)OCO4)ccc2n1	84.0%
CCC(c1nnnn1CCc1ccccc1)N(Cc1ccco1)Cc1cc2c(C)ccc(C)c2[nH]c1=O (stereo unspecified)	71.7%

6 compounds out of the list, arranged by molar mass, lowest first:
SMILES	AmpC inh no det
CCOc1nc(C#N)nc(N2CCCCC2)n1	1.8%
O=C(NCCCNC1CCCCC1)c1ccc(/C=N/O)nc1	-20.4%
CCCn1c(C)nc2c(NCCCCN3CCCC3)nc(C)nc21	-5.7%
O=C(O)CN1C(=O)c2cccc(Oc3ccc(Cl)cc3)c2C1=O	-0.2%
Cn1c(Cn2nnc3ccccc32)nnc1SCC(=O)c1ccc(F)cc1	22.5%
C[C@@H](C(=O)Nc1ccc2ccccc2c1)[C@@H]1C[C@@]1(C)[C@@H](NC(=O)Oc1ccc(F)cc1)c1ccccc1	u

Following part.
SMILES	AmpC inh no det
O=S(=O)(c1ccc2ccccc2c1)N1CCCCC1	2.6%
Cc1o[nH]c(=O)c1C[C@H](N)C(=O)O	7.8%&2.4%&11.5%&-1.6%
COc1ccc(-c2nc3cnc(N4CCNCC4)nc3n(C3CC3)c2=O)cc1	31.7%
Cn1c(SCC(=O)OC2CCCCC2)nnc1-c1ccc(S(=O)(=O)N2CCCC2)cc1	113.4%
Cc1cc(CNC(=O)Nc2ccc3c(c2)OCO3)nn1C	-4.5%
CC1CCN(CCCNC(=O)CN2CCN(Cc3ccc(Cl)cc3)C2=O)CC1	15.2%
O=C(Nc1ccccc1)c1cccnc1N1CCOCC1	6.2%
CCN(Cc1cc2ccccc2[nH]c1=O)S(=O)(=O)c1ccccc1	57.2%
NC(=O)c1cccc(S(=O)(=O)N2CC(c3ccccc3)CC2=O)c1 (stereo unspecified)	3.98µM*[single pt active]
Cc1occc1C(=O)Nc1nn[nH]n1	-11.4%
COc1ccccc1Nc1nc(N)nc(CN2CCOCC2)n1	-9.5%
Clc1ccc(C(Cl)(Cl)Cl)cc1Cl	6.3%
CN(C(=O)c1ccncc1)C1CC(C)(C)N(O)C(C)(C)C1	0.0%
CC1CCCCC12NC(=O)N(Cn1nnc3ccccc3c1=O)C2=O (stereo unspecified)	0.9%
Cc1[nH]c2ccccc2c1-c1cc(-c2cc(-c3c(C)[nH]c4ccccc34)on2)no1	-1.6%[5.75 µM]
Cn1c(=O)c2c(nc(-n3ccnc3)n2Cc2ccc(Cl)cc2Cl)n(C)c1=O	56.5%
COc1ccc(C2C3=C(CC(C)(C)CC3=O)Nc3c2c(=O)[nH]c(=O)n3Cc2ccccc2)cc1OC (stereo unspecified)	36.1%
CCCCCCOc1ccc(OCC(O)CN2C(=O)NC(C)(C)C2=O)cc1 (stereo unspecified)	83.8%
CCCCn1nc(CC(=O)O)c2ccccc2c1=O	1.8%
COc1nc(C#N)c(N2CCOCC2)o1	-12.1%
CCC(Sc1nncn1C)C(=O)Nc1nnc(-c2ccc(Cl)cc2)s1 (stereo unspecified)	38.5%
O=C(NC1CCCCC1)c1ccc(Cn2cc(Br)cn2)o1	23.7%
Cc1ccccc1	-8.2%&1.8%
O=c1c2ccccc2nnn1CSc1nnc(Nc2ccccc2)s1	-19.1%
Cc1ccc(C)c(NC(=O)CN(C)S(=O)(=O)c2ccc(F)cc2)c1	-1.3%
CCCNC(=O)c1cc(SC)ccc1Cl	7.0%
Cc1ccnc(SCCn2c(N3CCC(C)CC3)nc3c2c(=O)n(C)c(=O)n3C)n1	53.5%

In the list so far, these have a COOH group.
SMILES	AmpC inh no det
CCc1ccc2nc3c(c(C(=O)O)c2c1)CCC3	8.6%
C[C@@](N)(Cc1c[nH]c2ccccc12)C(=O)O	7.5%[5.75 µM]
COc1ccc2c(c1)c(CC(=O)OCC(=O)O)c(C)n2C(=O)c1ccc(Cl)cc1	13.8%[12.8 µM]
N[C@@H](Cc1ccnnc1)C(=O)O	-6.3%[5.75 µM]
O=C(O)CN1C(=O)c2cccc(Oc3ccc(Cl)cc3)c2C1=O	-0.2%
Cc1o[nH]c(=O)c1C[C@H](N)C(=O)O	7.8%&2.4%&11.5%&-1.6%
CCCCn1nc(CC(=O)O)c2ccccc2c1=O	1.8%
